Bioassay records from PubChem.
gsp antagonist – antagonizes gsp, the McCune-Albright syndrome mutation. gsp-mutant cells, cAMP HTRF, 30 min; control for the full effect not named in the record. Potency, µM (top dose mostly 76.9 µM), without a hit: top-dose activity change, negative = inhibition, usual class: inhibitors. 340,000 tested, 0.4% active; active = falling curve of any shape with a large fitted effect; inconclusive = falling curve, mostly with a smaller effect; inactive = flat or rising curve; cell line not stated here;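 note: intracellular cAMP measured with PDE inhibitor Ro 20-1724 present during compound exposure; potency is the fitted concentration of half-maximal effect; % is set by controls: 0 for no effect and ±100 for the full control effect; nearly all actives have a fitted effect of over 65% in size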
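HTRF cAMP measurement after 30 min RT detection following 30 min, 37C compound treatment alongside […] (added as 300 uM solution) in G418-selected cells seeded at 2000/well and grown 16–24 h.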
gsp ag – activates gsp, the McCune-Albright syndrome mutation; 340,000 tested, 0.13% active; AID 624287; gsp mutant cells, cAMP HTRF, 30 min; control for the full effect not named in the record; Potency, µM (titrated, usually from 76.9 µM), inactives show at the top dose activation (cAMP increase), actives largely listed as activators; active = well fitted activation curve with a large enough effect; inconclusive = small, poorly fitted or top-dose-only effect, or another doubt; inactive = no such curve, though single readings can be large or run the other way; cell line not stated here;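 note: phosphodiesterase inhibitor Ro 20-1724 added with compounds to block cAMP breakdown; potency is the fitted concentration of half-maximal effect; nearly all actives have a fitted effect of over 60% in size; about a fifth of the inactives were tested at one dose only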
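Cells stably selected in G418 were plated at 2000/well, grown 16-24 hr, then given compounds in DMSO with the PDE inhibitor […] (300 uM solution added) for 30 min at 37C; cAMP was read by HTRF.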
TRPML1 blocker – blocks the human TRPML1 channel | Q9GZU1 | TRPML1-inducible cells, Ca2+ dye fluorescence, FDSS; active compounds read low; inhibition of EC80 agonist-evoked calcium signal | activity change, negative = inhibition, % (no concentration beside the values) | 390,000 tested, 0.02% active | AID 624415; in the data active means activity change below about -50%; inconclusive means about -30% to -50%; inactive means above about -30%;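 note: stimulus is agonist 54-4 at its EC80 concentration; % is set by controls: 0 for no effect and ±100 for the full control effect; compound concentration not given in the record; the text of the record puts the active cut at -80%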
Target sequence (Q9GZU1 whole entry, looked up): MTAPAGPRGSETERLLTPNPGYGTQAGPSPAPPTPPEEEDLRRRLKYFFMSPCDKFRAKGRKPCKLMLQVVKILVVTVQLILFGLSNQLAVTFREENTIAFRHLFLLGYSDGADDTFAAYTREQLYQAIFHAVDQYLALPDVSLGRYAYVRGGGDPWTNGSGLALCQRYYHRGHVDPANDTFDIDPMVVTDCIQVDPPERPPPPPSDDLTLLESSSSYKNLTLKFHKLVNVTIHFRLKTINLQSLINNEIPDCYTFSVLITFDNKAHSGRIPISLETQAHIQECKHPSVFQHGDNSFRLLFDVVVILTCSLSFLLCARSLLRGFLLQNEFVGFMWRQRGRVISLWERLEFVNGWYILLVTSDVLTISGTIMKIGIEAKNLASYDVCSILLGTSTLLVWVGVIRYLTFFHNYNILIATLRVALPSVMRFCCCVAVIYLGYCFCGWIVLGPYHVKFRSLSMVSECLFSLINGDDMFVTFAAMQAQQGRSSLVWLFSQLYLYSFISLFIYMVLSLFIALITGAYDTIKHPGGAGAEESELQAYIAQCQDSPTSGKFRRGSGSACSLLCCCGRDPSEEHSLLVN
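Calcium fluorescence in TRPML1-DL cells induced overnight with Tet: a 110 s read after compound pin addition, then a 110 s antagonist read after challenge with 54-4 at 4 uM final (EC80).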
Sfp inh – Sfp phosphopantetheinyl transferase inhibition; Q9F4F7; Biochemical Sfp PPTase activity, qHTS; 310,000 tested, 3.5% active; Potency, µM, without a hit: max response, negative = inhibition, most hits filed as inhibitors; active = well fitted inhibition curve with a large enough effect; inconclusive = small, poorly fitted or top-dose-only effect, or another doubt; inactive = no such curve, though single readings can be large or run the other way;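 note: the enzyme is Sfp with the accession as filed and its product quenches rhodamine fluorescence; potency is the fitted concentration of half-maximal effect; 0% = enzyme reaction without inhibitor and -100% = no enzyme wells; top concentration of the series not given in the record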
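With Hepes-Na pH 7.6 buffer containing 10 mM MgCl2, Sfp (15 nM) modified BHQ-2-YbbR (12.5 uM) using rhodamine-CoA (5 uM). Two reads 30 minutes apart at 525/598 nm yielded each well's rate.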
Menin-MLL FL inh – menin-MLL binding inhibition, fluorescein peptide. Fluorescence polarization, fluorescein-MLL peptide displacement from menin. FP activity change, % at 61.4 µM. 290,000 tested, under 10 active; inconclusive = falling polarisation curve, or a change in total fluorescence; inactive = total fluorescence flat and polarisation flat or rising; no compound was filed as active; the % refers to the polarisation; negative = inhibition;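 note: % of control where 0% means no effect; inhibitors lower the polarisation; unlabelled MLL peptide was the positive control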
ClpP mod – qHTS Assay for Activators of ClpP | purified B. subtilis ClpP, FRET peptide cleavage, 20 min | Potency, µM (titrated, usually from 57.5 µM), for inactives: at the top dose activity change, negative = active | 340,000 tested, 1.9% active; active = well fitted falling curve with a large enough effect; inconclusive = small, poorly fitted or top-dose-only effect; inactive = no such curve, though single readings can be large or run the other way; note: potency is the fitted concentration of half-maximal effect; the source files actives as falling curves though it sought activators and does not explain the sign; nearly all actives have a fitted effect of over 65% in size; many hits overshoot -100%
Target sequence (P80244 whole entry, looked up): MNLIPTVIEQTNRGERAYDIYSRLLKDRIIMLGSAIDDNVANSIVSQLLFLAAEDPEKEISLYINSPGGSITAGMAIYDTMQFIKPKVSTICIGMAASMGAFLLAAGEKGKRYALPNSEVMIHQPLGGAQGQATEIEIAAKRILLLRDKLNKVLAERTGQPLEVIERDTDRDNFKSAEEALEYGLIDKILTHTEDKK
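FRET quenching reversal measured ClpP activation: 10 microg/mL B. subtilis ClpP at pH 8 with the FRET-FV decapeptide, read at 430 nm after 320 nm excitation. The 20-min minus 0-min signal was scaled between DMSO/no-enzyme wells and ADEP (5.8 microM final).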
TRPV1 potentiator – human TRPV1 potentiation | TRPV1-expressing cells, Fluo-8 calcium influx, capsaicin EC20 potentiation; host cell line not named in the record; control for the full effect not named in the record | Q8NER1 | 320,000 tested, 0.02% active | potentiation, % at 8.33 µM; active means potentiation above 80%; inconclusive means 30% to 80%; inactive means below 30%; note: 0% is about no effect
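Fluo-8 calcium influx in TRPV1-expressing cells, kinetic read (ex 480/em 520 nm). Compound added and read 3 min for agonist activity, followed by capsaicin at EC20 final and 2 min further read for enhancement.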
* marks the source's active call; other numbers are inactive results; u = inconclusive; x = no result given; [ ] = another dose, or the depositor's remark.

Under each structure: gsp antagonist	gsp ag	TRPML1 blocker	Sfp inh	Menin-MLL FL inh	ClpP mod	TRPV1 potentiator
COc1ccc(CCn2c(SCCN3CCCCC3)nc3ccccc3c2=O)cc1OC
→ 0.3%	u	26.3	u	-1.8	-1.7%	1.1
Cc1ccc(N2CCN(S(=O)(=O)c3ccc(Cl)s3)CC2C)cc1 (stereo not given)
→ -7.5%	6.2%[15.4 µM]	6.3	-1.7%	x	-7.4%	1.1
CN(C)CCN(C(=O)c1ccc(S(=O)(=O)N2CCc3ccccc32)cc1)c1nc2ccc(F)cc2s1
→ -3.8%	-22.5%	-11.7	-1.4%	x	-1.9%	-44.3
C=C1CC[C@@H]2[C@](C)(CO)[C@H](O)CC[C@@]2(C)[C@@H]1C/C=C1/C(=O)OCC1O (stereo not given in full)
→ -3.8%	x	7.9	x	x	0.4%	x
C[C@@H]1CN([C@@H](C)CO)C(=O)c2cc(NS(=O)(=O)c3ccc(F)cc3)ccc2O[C@@H](C)CCCCO[C@H]1CN(C)C(=O)NC1CCCCC1
→ x	u	-14.1	x	x	-1.6%	x
Cc1ccc2c(cnn2C(=O)CCC(=O)NCc2cccc(Br)c2)c1
→ 11.0%	29.7%	-9.6	1.2%	-3.4	-0.6%	6.9
CCOC(=O)N1CCN(C(=O)CSc2nc3c(cnn3-c3ccccc3)c(=O)[nH]2)CC1
→ -11.0%	-10.0%	-1.7	2.7%	-1.8	-0.8%	-19.6
CCOC(=O)CSc1nc2cccnc2n1C
→ 5.4%	-13.6%[15.4 µM]	0.5	-1.8%	0.2	x	-2.4
COc1cc(CCC(=O)Nc2c(C(=O)N3CCN(c4ccccc4)CC3)oc3ccccc23)on1
→ -19.4%	-26.9%	-12.3	-3.7%	1.6	-0.1%	0.7
CCCN(C(=O)Cc1nc(N)n[nH]1)C1(C(=O)Nc2ccccc2C)CCCCC1
→ -5.1%	3.9%	-14.1	8.8%	0.5	-0.6%	-2.8
COCC(=O)N(CCN(C)C)Cc1cc2cc3c(cc2nc1Cl)OCO3
→ 12.6%	u	0.7	16.1%	5.8	-10.2%	7.5
COc1cc2c(cc1OC)-c1cc(Nc3ccc(C)cc3)nc(=O)n1CC2
→ 12.6%	21.9%	9.1	6.5%	-1.0	-5.6%	-0.2
CC(C)Oc1ccc(NC(=O)Oc2ccccc2)cc1
→ 0.6%	-9.6%	-7.3	4.5%	4.4	0.4%	-5.0
COc1ccc(C2CCCN2C(=O)Nc2ccc(Cl)cc2)cc1OC (stereo not given)
→ -9.9%	-53.6%[inhibitor]	-8.9	2.0%	6.1	2.7%	-3.0
CCOC(=O)c1csc(NC(=O)CCS(=O)(=O)c2ccc(Cl)cc2)n1
→ x	-80.9%[inhibitor]	-9.9	x	x	-2.8%	x
COc1ccc(NC(=S)Nc2ccc(Oc3ccccc3)cc2)cc1
→ -1.3%	-6.8%	-13.7	-1.9%	1.7	-3.5%	u
CC(=O)n1cc([C@H]2C=C(C(=O)N3CCOCC3)O[C@@H](OCCCCO)C2)c2ccccc21
→ -7.7%	x	0.9	x	x	-4.3%	x
CC(=O)Nc1ccc(C(=O)OCCc2ccccc2)cc1
→ 1.5%	u	-1.2	-9.7%	-1.7	x	10.7
Cc1cc(C)n2nc(-c3ccc(Cl)cc3)cc2n1
→ 8.8%	24.1%	27.1	-12.7%	0.6	4.1%	-13.6
CCN(CC)CCCNC(=S)N(Cc1cccnc1)Cc1cc2cc(C)cc(C)c2[nH]c1=O
→ 1.6%	-7.7%	-14.4	4.3%	1.0	x	16.3

Later entries.
SMILES	gsp antagonist	gsp ag	TRPML1 blocker	Sfp inh	Menin-MLL FL inh	ClpP mod	TRPV1 potentiator
NC(=O)N/N=C/c1cn(CC(=O)Nc2ccc(F)cc2)c2ccccc12	12.0%	-10.7%[15.4 µM]	-9.2	6.4%	5.5	x	-24.4
CC(=O)c1ccc(N(CC(=O)NCC2CCCO2)C(=O)CCC(=O)Nc2cc(C)on2)cc1 (stereo not given)	8.3%	-1.5%[15.4 µM]	23.7	4.1%	-13.1	-3.4%	2.3
C[C@H](NC(=O)[C@@H]1CSC2c3ccccc3C(=O)N21)C(=O)NCCc1ccccc1 (stereo not given in full)	-6.5%	18.8%	-1.4	-1.0%	x	0.9%	17.0
Cn1c(O)c(N=NC(=O)c2cccc(S(=O)(=O)N3CCCCC3)c2)c2ccccc21	u	-11.0%	21.6	9.1%	6.4	1.0%	2.7
COc1ccc(-c2[nH]ncc2CN2CCCO2)cc1F	1.7%	11.5%	1.3	19.8%	-1.3	x	3.1
COc1ccc(C(=O)O/N=C(\N)c2ccccc2)cc1OC	4.8%	20.5%[15.4 µM]	9.6	11.4%	5.2	-0.9%	19.5
O=C(N/N=C/c1c[nH]c2ccccc12)c1ccccc1Cl	7.1%	11.2%[15.4 µM]	-4.4	10.7%	1.9	-0.3%	2.7
COc1cc(CN2CCC(n3nccc3NC(=O)C3CCOC3)CC2)ccc1F (stereo not given)	1.7%	7.2%	18.7	15.2%	x	-2.2%	0.1
O=C(Cc1cccc(C(F)(F)F)c1)NCc1cccc(Cl)c1	1.4%	u	6.5	10.9%	6.6	-0.9%	-17.4
CN(C)c1ccc(NC(=O)c2cccc(C(=O)Nc3ccc(N(C)C)cc3)n2)cc1	u	8.3%[15.4 µM]	-9.2	-23.9%	14.7	-1.6%	9.1
Cc1ccccc1OCC(=O)NCCNC(=O)c1ccncc1	8.5%	-15.0%	-16.4	9.8%	-0.1	x	9.2
N/C(=N\N=C\c1ccc(O)cc1)c1nonc1N	-3.8%	u	14.8	-4.3%	-3.1	x	-0.2

Retrieved by structure from the entries so far, 6 records:
SMILES	gsp antagonist	gsp ag	TRPML1 blocker	Sfp inh	Menin-MLL FL inh	ClpP mod	TRPV1 potentiator
O=C(Cc1cccc(C(F)(F)F)c1)NCc1cccc(Cl)c1	1.4%	u	6.5	10.9%	6.6	-0.9%	-17.4
COc1cc(CN2CCC(n3nccc3NC(=O)C3CCOC3)CC2)ccc1F (stereo not given)	1.7%	7.2%	18.7	15.2%	x	-2.2%	0.1
NC(=O)N/N=C/c1cn(CC(=O)Nc2ccc(F)cc2)c2ccccc12	12.0%	-10.7%[15.4 µM]	-9.2	6.4%	5.5	x	-24.4
Cc1ccccc1OCC(=O)NCCNC(=O)c1ccncc1	8.5%	-15.0%	-16.4	9.8%	-0.1	x	9.2
CN(C)c1ccc(NC(=O)c2cccc(C(=O)Nc3ccc(N(C)C)cc3)n2)cc1	u	8.3%[15.4 µM]	-9.2	-23.9%	14.7	-1.6%	9.1
COc1ccc(C(=O)O/N=C(\N)c2ccccc2)cc1OC	4.8%	20.5%[15.4 µM]	9.6	11.4%	5.2	-0.9%	19.5

Following part.
SMILES	gsp antagonist	gsp ag	TRPML1 blocker	Sfp inh	Menin-MLL FL inh	ClpP mod	TRPV1 potentiator
CN1CCN(CC(=O)Nc2c(C#N)cnn2-c2ccccc2)CC1	5.4%	2.1%	18.5	-4.5%	-0.6	x	8.2
Cc1ccc(C23CC4CC(CC(NC(=O)N5CCN(C)CC5)(C4)C2)C3)cc1	5.7%	-13.4%	-2.1	6.1%	-1.4	-1.6%	-14.3
CC(C)(C)NC(=O)c1cc(NC(=O)c2cccs2)cc(NC(=O)c2cccs2)c1	-12.9%	-4.4%	16.5	35.1%[activator]	3.3	x	-10.1
CCOC(=O)[C@H](O)[C@@H](O)c1cccc([C@H](O)[C@@H](O)C(=O)OCC)c1	8.2%	u	43.5	2.9%	-5.5	-1.4%	0.4
C[C@@H]1COC(=O)[C@@H](CC(=O)OC(C)(C)C)C/C=C\C[C@@H](CC(=O)N[C@H](CO)Cc2ccccc2)C(=O)N1	5.4%	5.6%	18.7	x	x	-0.2%	x
O=C(CNc1cccc([N+](=O)[O-])c1)NCCCc1ccccc1	-2.1%	-1.9%[15.4 µM]	-5.3	-0.9%	2.2	x	-16.3
C[C@H](CO)N1C[C@H](C)[C@@H](CN(C)CC2CCCCC2)Oc2c(NC(=O)CCC(F)(F)F)cccc2C1=O	-14.3%	-2.4%	-9.6	x	x	-20.1%	x
O=C(Cn1ncc2c3ccccc3n(Cc3cccc(Cl)c3)c2c1=O)NCC1CCCO1 (stereo not given)	6.5%	-1.5%[15.4 µM]	27.9	11.4%	u	x	5.0
Cc1c(C(=O)N2CCN(c3ccc([N+](=O)[O-])cc3)CC2)sc2ncn(CC(=O)N3CCOCC3)c(=O)c12	-13.6%	u	13.1	13.0%	-7.1	x	u
Cc1ccc2nc(NC3=NC(CC(=O)O)C(=O)N3)nc(C)c2c1 (stereo not given)	x	x	x	-7.8%	1.3	x	-0.5
Cc1occc1C(=O)N/N=C/C1=C(N2CCOCC2)C(=C\c2ccc(Cl)cc2)/CC1	-25.1%	-15.9%	10.7	18.0%	3.1	1.6%	1.4
Cn1cc(-c2nnnn2-c2ccc(Cl)cc2)c(=O)c2ccccc21	0.3%	u	11.2	10.3%	-0.3	-5.0%	4.9
Cc1ccc(-c2nc(CS(=O)CC(=O)NCCC(C)C)c(C)o2)cc1 (stereo not given)	2.3%	-4.7%	-12.5	18.4%	-0.3	-23.0%	-4.2
CC(C)C(NC(=O)c1c(F)cccc1F)C(=O)N1CCN(S(=O)(=O)/C=C/c2ccccc2)CC1 (stereo not given)	-3.4%	3.2%	-16.2	x	x	0.4%	-35.6
CC1(C)Cc2c(cnn2-c2cccc(F)c2)C(NC(=O)CCN2CCCC2=O)C1 (stereo not given)	1.6%	-3.4%[15.4 µM]	-10.6	1.7%	-1.8	-1.6%	5.3
